VDR inhibitor: blocks the human vitamin D receptor; P11473; VDR-SRC2-3 peptide fluorescence polarization, 2 h; Potency, µM, for the others: max response, negative = inhibition, most hits filed as inhibitors; 400,000 tested, 0.93% active; active = well fitted inhibition curve with a large enough effect; inconclusive = small, poorly fitted or top-dose-only effect, or another doubt; inactive = no such curve, though single readings can be large or run the other way; also: series mostly up to about 120 µM
Target sequence (P11473 whole entry, looked up): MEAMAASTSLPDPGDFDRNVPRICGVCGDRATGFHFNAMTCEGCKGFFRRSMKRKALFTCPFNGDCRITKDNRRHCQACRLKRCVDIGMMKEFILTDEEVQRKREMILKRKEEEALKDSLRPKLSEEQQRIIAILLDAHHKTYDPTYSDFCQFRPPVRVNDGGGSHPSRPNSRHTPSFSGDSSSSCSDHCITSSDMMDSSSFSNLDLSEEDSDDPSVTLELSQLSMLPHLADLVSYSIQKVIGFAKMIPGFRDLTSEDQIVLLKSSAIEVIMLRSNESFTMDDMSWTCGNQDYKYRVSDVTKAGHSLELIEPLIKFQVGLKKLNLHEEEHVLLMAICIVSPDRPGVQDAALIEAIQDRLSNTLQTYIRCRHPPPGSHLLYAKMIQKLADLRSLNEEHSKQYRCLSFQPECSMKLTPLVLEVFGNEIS
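After 23 nl compound addition and a short centrifugation, plates sat for 2 hours at ambient temperature; polarization of fluorescence then indicated loss of VDR binding to peptide SRC2-3.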
Starred values were filed as active, the others as inactive; ? = inconclusive; [ ] = remark or other dose. % is scaled to controls: 0 for no effect and ±100 for the full control effect; potency is read from the fitted curve at half-maximal effect. The list is partial (hit frequency here may not be typical).

Start of the listing, in advance, 14 compounds:
SMILES	VDR inhibitor
Cc1ccc(S(=O)(=O)NNC(=O)c2c(O)c3ccccc3[nH]c2=O)cc1	-16.3%
CCOC(=O)c1[nH]c(C)c(C(=O)Nc2cccc(Cl)c2C)c1C	5.9%
CN(CCn1ccnc1)C(=O)CC1C(=O)NCCN1Cc1ccccc1C(F)(F)F (stereo not drawn)	5.3%
Cc1ccc(C)c(OCC(=O)N2CCc3ccccc3C2)c1	-0.9%
C1=C(CCNc2nnnn2-c2ccccc2)CCCC1	?
Cc1cc(C)n2nc(N)c(N=Nc3ccc(Cl)cc3)c2n1	-10.6%
CCOc1ccc(N(CC(=O)Nc2cccc(N(C)S(C)(=O)=O)c2)S(=O)(=O)c2ccccc2)cc1	2.2%
COc1cc(OC)cc(C(=O)OCC(=O)Nc2nnc(-c3ccccc3)o2)c1	3.6%
CN1CCN(CC(O)COc2ccc(C34CC5CC(CC(C5)C3)C4)cc2)CC1 (stereo not drawn)	-29.1%
O=C(CSc1ncccc1-c1nc2ccccc2[nH]1)N1CCCCC1	4.9%
COc1ccc(/C=C(\C#N)C(=O)NC2CCS(=O)(=O)C2)cc1OC (stereo not drawn)	0.3%
CC1=CC2C(=O)c3cccc(O)c3C(=O)C2C(O)=C1 (stereo not drawn)	25.1µM*
CN(C(=O)COC(=O)c1cc([N+](=O)[O-])ccc1Cl)c1ccccc1	?
Cc1ccc2c(N)c(C)ccc2c1	-15.3%

This part in full (from the top)
SMILES	VDR inhibitor
Cc1ccc(S(=O)(=O)NNC(=O)c2c(O)c3ccccc3[nH]c2=O)cc1	-16.3%
CCOC(=O)c1[nH]c(C)c(C(=O)Nc2cccc(Cl)c2C)c1C	5.9%
CN(CCn1ccnc1)C(=O)CC1C(=O)NCCN1Cc1ccccc1C(F)(F)F (stereo not drawn)	5.3%
Cc1ccc(C)c(OCC(=O)N2CCc3ccccc3C2)c1	-0.9%
C1=C(CCNc2nnnn2-c2ccccc2)CCCC1	?
Cc1cc(C)n2nc(N)c(N=Nc3ccc(Cl)cc3)c2n1	-10.6%
CCOc1ccc(N(CC(=O)Nc2cccc(N(C)S(C)(=O)=O)c2)S(=O)(=O)c2ccccc2)cc1	2.2%
COc1cc(OC)cc(C(=O)OCC(=O)Nc2nnc(-c3ccccc3)o2)c1	3.6%
CN1CCN(CC(O)COc2ccc(C34CC5CC(CC(C5)C3)C4)cc2)CC1 (stereo not drawn)	-29.1%
O=C(CSc1ncccc1-c1nc2ccccc2[nH]1)N1CCCCC1	4.9%
COc1ccc(/C=C(\C#N)C(=O)NC2CCS(=O)(=O)C2)cc1OC (stereo not drawn)	0.3%
CC1=CC2C(=O)c3cccc(O)c3C(=O)C2C(O)=C1 (stereo not drawn)	25.1µM*
CN(C(=O)COC(=O)c1cc([N+](=O)[O-])ccc1Cl)c1ccccc1	?
Cc1ccc2c(N)c(C)ccc2c1	-15.3%
CCc1cccc(C)c1NC(=O)c1ccc2nc(N3CCOCC3)sc2c1	2.0%
CCOC(=O)C1CCCN(CCC(=O)Nc2ccc3c(c2)CCC3)C1 (stereo not drawn)	-13.1%
COc1ccc(S(=O)(=O)N2CCCCC2)cc1NC(=O)Cc1ccc(Br)cc1	-3.7%
CCCc1nnc(NC(=O)COC(=O)c2cc(C)nc3ccccc23)s1	-0.3%
O=C(COC(=O)c1ccc(Br)o1)Nc1ncc(Cl)cc1Cl	1.2%
Nc1nnc(/C=C/c2ccccc2Cl)s1	10.2%
COc1cccc(C(=O)NNC(=O)Cc2ccc(Cl)cc2)c1	6.2%
Cc1ccc(S(=O)(=O)/C=C/C#N)cc1	11.2µM*
CC(C)(C)OC(=O)N1CCC(c2c(C(=O)N3CCC(c4ccccc4)C3)cnn2-c2cccc(Cl)c2)CC1 (stereo not drawn)	10.6%
O=C1OC(N2CCN(C(=O)c3ccco3)CC2)c2ccccc21 (stereo not drawn)	0.6%
COc1ccc(S(=O)(=O)N2CCOCC2)cc1NC(=O)CSc1nnc(C2CC2)n1N	-23.2%
COc1ccc(S(=O)(=O)N2CCC(NC(=O)c3cccnc3)CC2)cc1	4.9%
Cc1cc(C)n2nc(C(=O)OCC(=O)Nc3cc(S(=O)(=O)N4CCOCC4)ccc3Cl)nc2n1	-0.6%
CC1Cn2c(CCc3ccccc3)nnc2S1 (stereo not drawn)	6.0%
Cc1n[nH]c(=O)c2c(NC(=O)CSc3nncn3C(C)C)oc(C)c12	8.7%
COc1ccc2c(Sc3ccc(Cl)cc3)c(C(=O)NCCCN3CCCCC3)[nH]c2c1	6.4%
COC(=O)c1ccc(NC(=O)c2cc(S(=O)(=O)N3CCOCC3)cn2C)cc1	9.8%
CC(C)(O)/C=C/C(=O)[C@](C)(O)C1[C@H](O)C[C@@]2(C)C3CC=C4C(C=C(O[C@@H]5O[C@H](CO)[C@@H](O)[C@H](O)[C@H]5O)C(=O)C4(C)C)[C@]3(C)C(=O)C[C@]12C (stereo partly drawn)	-13.5%
Cc1cc(C)n2nc(CNS(=O)(=O)c3c(F)c(F)c(F)c(F)c3F)nc2n1	1.6%
NC(=O)c1ccc(-c2nnn(CC(=O)N(C3CCCCC3)C3CCS(=O)(=O)C3)n2)cc1 (stereo not drawn)	17.0%
O=C(NCCNC(=O)c1ccco1)c1cccc(F)c1	-3.2%
Nc1oc2ccc(F)cc2c(=O)c1C=O	-9.6%

3 entries already listed, ordered by SMILES length, highest first.
SMILES	VDR inhibitor
Cc1cc(C)n2nc(C(=O)OCC(=O)Nc3cc(S(=O)(=O)N4CCOCC4)ccc3Cl)nc2n1	-0.6%
COc1ccc2c(Sc3ccc(Cl)cc3)c(C(=O)NCCCN3CCCCC3)[nH]c2c1	6.4%
Nc1oc2ccc(F)cc2c(=O)c1C=O	-9.6%

Additional records follow.
SMILES	VDR inhibitor
Cc1cccc(CCN2CCN=C2N(C)C)c1	-3.2%
CN(C)c1ccc(C(=S)Nc2ccccc2)cc1	8.3%
Cc1ccc(C)c(C(C)NC(=S)NC2CCCCC2)c1 (stereo not drawn)	3.8%
CCc1ccccc1NC(=O)NC(CC)Cn1nnc2ccccc2c1=O (stereo not drawn)	-6.4%
COc1ccc2c(c1)c(C(C)=O)c(C)n2CCc1ccc(OC)c(OC)c1	20.4%
Cc1nc(N2CCOCC2)nc(Oc2ccccc2F)c1[N+](=O)[O-]	-1.1%
CCN(CC)S(=O)(=O)c1cccc(C(=O)N[C@H](C(=O)NCc2ccccc2F)C(C)C)c1	2.8%
Cc1ccccc1OCC(=O)Nc1c(C)ccc2nsnc12	-8.4%
C=CCOc1ccc(C=Nc2cccc(Cl)c2)c(O)c1	-4.3%
Cc1cccc(NC(=O)C2CCCN(S(=O)(=O)c3cnc[nH]3)C2)c1C (stereo not drawn)	-1.8%
CC(C)C[C@H](N)C(=O)N[C@H](C(=O)N[C@@H](CCCN=C(N)N)C(=O)N[C@H](CS)C(=O)NCC(=O)N[C@@H](CCCCN)C(=O)N[C@@H](Cc1cnc[nH]1)C(=O)N[C@@H](CO)C(=O)N[C@@H](CCCN=C(N)N)C(=O)O)C(C)C	-5.5%
Cc1ccc(C(=O)Nc2ccc(S(=O)(=O)N3CCCC3)cc2)s1	0.5%
Cc1n[nH]c(C)c1C(=O)CC1(O)C(=O)N(CCc2ccccc2)c2ccc(Cl)cc21 (stereo not drawn)	-14.5%
COc1ccc(NC(=O)C(=O)Nc2cccc3cccnc23)c(OC)c1	11.6%
COc1ccc(N2CCN(c3oc(/C=C/c4ccccc4OC)nc3C#N)CC2)cc1	-10.3%
CC(NC(=O)COc1ccc(Oc2ccccc2)cc1)C(=O)O (stereo not drawn)	-14.3%
O=C(O)/C=C/c1ccc(OCCCF)cc1	14.2%
O=C(Nc1nnc(SCC(=O)N2CCCCC2)s1)c1c(F)cccc1F	-3.0%
Cc1cc(C)c2c(n1)sc1c(N3CCN(CCO)CC3)ncnc12	-16.8%
O=C1CC(NS(=O)(=O)c2cccs2)CN1c1ccc(Cl)cc1 (stereo not drawn)	14.4%
C=Cc1ccc(CSc2nc(-c3ccccc3C)nc3c2Cc2c(CO)cnc(C)c2O3)cc1	3.6%
C[C@H](CO)N1C[C@H](C)[C@@H](CN(C)S(=O)(=O)c2ccc(F)cc2)Oc2ccc(NS(=O)(=O)c3ccccc3)cc2C1=O	7.9%
Cc1cc([N+](=O)[O-])cnc1N1CCOCC1	-1.2%
COc1ccc(C2(C(=O)Nc3c(C)n(C)n(-c4ccccc4)c3=O)CCCC2)cc1OC	7.9%
O=S(=O)(c1ccc2c(c1)CCN2)N1CCOCC1	-0.1%
COc1cc2c(cc1OC)C1=NC(=O)CN1C(SCc1ccccc1)=N2	-8.0%
CC(=O)Nc1ccc2nc(NC(=O)COc3cccc(C)c3)sc2c1	-20.4%
COc1ccc(/C=N/NC(=O)CCCCCNC(=O)c2ccccc2)cc1	-0.7%
Cc1nnc(SCC(=O)Nc2ccc3c4c(cccc24)CC3)n1C	3.1%
CN(CCOc1ccc(Cl)cc1)C(=O)c1cccc(S(=O)(=O)N2CCN(c3ccccc3)CC2)c1	-7.2%
Cc1ccc(C)c(N2CCN(S(=O)(=O)c3cc(Br)cc4c3N(C(=O)C3CC3)CC4)CC2)c1	-3.2%
CCOC(=O)c1csc(N/N=C2\CCc3ccccc32)n1	5.3%
COc1ccc(-c2csc(NC(C)=O)n2)cc1OC	?
Cc1cccc(C(=O)N/C(=C\c2ccco2)C(=O)N2CCCCCC2)c1	-1.1%
COc1cc2c(cc1OC)C(C(=O)Nc1ccccc1N1CCN(C)CC1)C1c3ccccc3CCN1C2=O (stereo not drawn)	-19.6%
Cc1cc(C(=O)N2CCN(Cc3ccc4c(c3)OCO4)CC2)cs1	-14.4%
Cc1cc(Br)ccc1SCC(=O)OCC(=O)c1c(N)n(C)c(=O)n(C)c1=O	5.8%
Cc1ccc(/C=N/NC(=O)c2cccc3ccccc23)o1	4.4%
CCn1cc(C(=O)N2CCN(c3ccccc3OC)CC2)c2cc(OC)c(OC)cc2c1=O	?
C[n+]1cccc(CNC(=O)/C=N/O)c1	-6.0%
COc1ccc(Nc2nc(N)nc(COc3ccc(OC)cc3)n2)cc1	-12.6%
Cc1ccc(/C=C/C(=O)NCCCN2CCN(CCCNC(=O)/C=C/c3ccc(C)cc3)CC2)cc1	-6.8%
CNS(=O)(=O)c1ccc2nc(NC(=O)c3ccc(N4C(=O)CCC4=O)cc3)sc2c1	?
CN(C)c1cc(C(F)(F)F)nc(-c2ccccn2)n1	-10.9%
COc1ccc(CN(C)C(=O)C23CC4CC(CC(C4)C2)C3)c(OC)c1	-24.3%
O=[N+]([O-])c1ccc(Nc2ccc(F)cc2)cc1	4.8%
COc1cccc(OC)c1C(=O)NN1CCCCC1	5.2%
Cc1ccc(C)n1-c1sc2c(c1C(=O)O)CCCC2	-14.1%
Cc1ccc(S(=O)(=O)N2[C@@H](c3cccc(Cl)c3)C(C(=O)O)=CC[C@H]2c2cccc(Cl)c2)cc1	-18.3%
CCOc1ccc(C(C)NC(=S)NC2CCCCC2)cc1 (stereo not drawn)	-27.1%
COc1ccc(OC(C)C(=O)N(C)Cc2nc(-c3ccc(C)cc3)no2)cc1 (stereo not drawn)	-22.3%
COc1ccccc1NC(=O)N1CCC(C(=O)c2ccc(F)cc2)CC1	3.2%
Cc1ccc(/C=N/NC(=O)CNC(=O)c2ccc(S(=O)(=O)N3CCCC3)cc2)o1	1.7%
COc1ccc(CCNC(=O)Cc2ccccc2)cc1OC	18.9%
Clc1ccc(OCc2nc(-c3ccccn3)n[nH]2)cc1	1.6%
COCCOC(=O)c1[nH]c2c(c1C)C(=O)C(C(=O)OC)C(C)C2 (stereo not drawn)	-16.9%
CCc1nc(N2CCCCC2)c2oc3ccccc3c2n1	-2.7%
c1csc(-c2nc3ccccn3c2Nc2ccc3c(c2)OCCO3)c1	-5.4%
CC(C)CCNC(=O)C1CCCN(S(=O)(=O)c2ccc(-n3cnnn3)cc2)C1 (stereo not drawn)	31.4%[activator]
CCO[C@H]1OC(C(=O)NCc2ccccc2)=C[C@@H](c2cn(C(C)=O)c3ccccc23)[C@@H]1CCCO	?
(list continues)
SMILES	VDR inhibitor
O=C1CN(C(=O)c2cc([N+](=O)[O-])ccc2Cl)C(c2ccc(F)cc2)c2cc(F)ccc2N1 (stereo not drawn)	4.0%
S=C(Nc1ccc2nc(-c3ccccn3)c(-c3ccccn3)nc2c1)N1CCOCC1	0.9%
O=C(O)CCC(=O)N1CCc2cc(S(=O)(=O)N(CCc3ccccc3)Cc3ccccc3)ccc21	-2.5%
C/C(=N\O)C(C)(C)Nc1ccccc1F	?
CCCCOc1ccc(C2(C(=O)O)CCCC2)cc1	-5.4%
c1ccc(SCc2nc(-c3ccncc3)no2)cc1	-8.2%
O=C(c1ccc(F)cc1F)C1CCN(c2ccc([N+](=O)[O-])cn2)CC1	10.5%
Cc1cccc(C)c1NC(=O)CN(C)C(=O)CSC(=S)N1CCCC1	-6.7%
COc1ccc(CCn2nnnc2C(c2ccccc2)N2CCN(C)CC2)cc1OC (stereo not drawn)	-8.4%
COc1ccc(Cc2nnc(SCC(=O)Nc3ccccc3)[nH]c2=O)cc1	4.3%
O=C(NCC1CCCO1)c1sc2cc(Cl)ccc2c1Cl (stereo not drawn)	0.1%
CC(=O)n1cc(N(C(=O)CCl)c2ccc([N+](=O)[O-])cc2)c2ccccc21	22.4µM*
O=C(C1CCCCC1)N1CCCn2c1nc1ccccc12	-4.7%
CCCCOc1ccc(C(=O)NCC(=O)NCC(c2ccc(OC)cc2)N2CCOCC2)cc1 (stereo not drawn)	-1.3%
CCOC(=O)c1ccc(NC(=O)C2C3CCC(C3)C2C(=O)O)cc1 (stereo not drawn)	?
O=C(COc1ccc(Br)cc1)N(Cc1ccco1)C1CCS(=O)(=O)C1 (stereo not drawn)	-7.7%
CCCCN(CC)C(=O)CCCn1c(=O)c2cccn2c2ccccc21	5.1%
O=C(Nc1ccc(Cl)cc1C(F)(F)F)c1cc(S(=O)(=O)N2CCOCC2)ccc1F	15.8%
Cc1nn2c(=O)cc(COC(=O)c3cccc(NC(=O)COc4ccccc4C)c3)nc2s1	8.9%
